# Screening data from PubChem BioAssay.
# Ecoli rRNA inh = inhibitors of bacterial rRNA selective over humanized ribosomes; 350,000 tested, 1.6% active; GFP signal change (wild-type ribosome), % (no concentration beside the values); E. coli WT GFP vs humanized-ribosome RFP mutants, fluorescence, 24 h; active compounds read low; DMSO median 0, no signal -100; AID 720706;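 active means significant combined selectivity score with lowered wild-type GFP, culture density cut under 30%, mutant RFP and density less affected; inactive means any of these conditions unmet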; further: one replicate is shown; some compounds called inactive have numbers as strong as hits
# AF4-AF9 inh = inhibitors of human MLL-AF4/AF9 interaction; 350,000 tested, 0.47% active; AID 651704; P42568; AlphaScreen, biotin-AF4 peptide binding to FLAG-AF9; inhibition, % at 10 µM;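 active means every replicate reaching a set inhibition limit, whatever the replicate mean, cut at about 25% in these data; inconclusive means mean inhibition reaches that limit but some replicates miss it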;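 further: 0% = plate neutral control median and 100% = total signal loss; the record names both 10 and 1 µM as test concentration; the first replicate is given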
# Target sequence (P42568 whole entry, looked up): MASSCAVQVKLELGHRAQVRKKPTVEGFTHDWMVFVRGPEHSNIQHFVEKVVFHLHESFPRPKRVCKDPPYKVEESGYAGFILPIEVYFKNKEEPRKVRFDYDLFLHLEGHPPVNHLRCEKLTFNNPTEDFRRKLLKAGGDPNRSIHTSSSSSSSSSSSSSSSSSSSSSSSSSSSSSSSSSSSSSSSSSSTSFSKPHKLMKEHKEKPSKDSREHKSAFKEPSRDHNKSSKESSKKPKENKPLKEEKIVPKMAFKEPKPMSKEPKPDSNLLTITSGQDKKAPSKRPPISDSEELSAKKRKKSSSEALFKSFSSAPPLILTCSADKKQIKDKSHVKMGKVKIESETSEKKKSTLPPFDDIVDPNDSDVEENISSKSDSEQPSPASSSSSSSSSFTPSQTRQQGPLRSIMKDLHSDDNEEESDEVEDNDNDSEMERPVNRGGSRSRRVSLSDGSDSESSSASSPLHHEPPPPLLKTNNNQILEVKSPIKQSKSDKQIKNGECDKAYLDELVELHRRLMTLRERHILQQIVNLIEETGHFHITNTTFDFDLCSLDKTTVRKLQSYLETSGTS
# UCH37 inh = blocks the human deubiquitinase UCH37; 330,000 tested, 0.33% active; Q9Y5K5; purified proteasome/UCH37, Ub-AMC cleavage fluorescence; inhibition, % (test concentration not listed); AID 588478;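 active means mean of two replicates above 20%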;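 further: 0% = compound-free wells with enzyme and 100% = wells lacking proteasome; stock transfer was 100 nL into about 20 µL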
# Target sequence (Q9Y5K5 whole entry, looked up): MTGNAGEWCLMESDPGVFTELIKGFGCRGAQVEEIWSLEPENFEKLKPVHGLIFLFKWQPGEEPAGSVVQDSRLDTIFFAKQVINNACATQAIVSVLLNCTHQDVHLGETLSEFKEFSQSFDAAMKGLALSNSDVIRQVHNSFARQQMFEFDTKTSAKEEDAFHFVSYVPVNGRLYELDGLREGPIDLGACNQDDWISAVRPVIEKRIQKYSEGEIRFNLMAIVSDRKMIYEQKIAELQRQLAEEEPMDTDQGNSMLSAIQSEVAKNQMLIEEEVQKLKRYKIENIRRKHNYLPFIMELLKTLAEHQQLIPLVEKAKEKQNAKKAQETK
#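 Material: Human UCH37 enzyme supplied as purified proteasome complex | Schedule: 30 min compound-proteasome preincubation then 25 min substrate reaction, room temperature | Detection: AMC fluorescence from Ub-AMC cleavage, excitation 355 nm, emission 460 nm | Benchmarks: Wells without proteasome as full block, compound-free enzyme plus substrate as uninhibited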
# Bfl-1 A1 inh = inhibitors of the anti-apoptotic protein A1, read as caspase activation; AID 2462; 330,000 tested, 0.066% active; MEF A1-2A-BIM cells, Caspase-Glo 3/7 luminescence, 3 h; percent of clofoctol response, vehicle zero; caspase activation, % (no concentration beside the values);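 active means over half of replicate activation scores above 10%, or exactly half above 10 with the replicate mean above 10; inconclusive means replicate mean below 10 yet half the replicates above 10; inactive means over half of replicates below 10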;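 further: wells of about 30 µL received 50 nL stock; many hits fall short of the cut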
# T cruzi inh = T. cruzi replication inhibition; 300,000 tested, 1.4% active; inhibition, % (concentration not given with the values); T. cruzi beta-gal in NIH3T3, luminescence, 90 h; AID 1885;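 active means mean inhibition across valid replicates above about 55%, limit read from the data; inconclusive means mean below that limit but half or more replicates reach it; inactive means mean below it, under half of replicates reach it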;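 further: signal also drops with host cell toxicity which is not excluded here; 0% = plate median of DMSO wells and 100% = zero luminescence signal; higher percent means less beta-gal luminescence so fewer parasites; stock transfer was 50 nL into about 50 µL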
# E coli growth = inhibitors of Escherichia coli growth. OD600 absorbance (no concentration beside the values). 330,000 tested, 0.21% active. OD600, 23 h; active compounds read low;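 active means OD600 absorbance below the run mean of sample wells minus 3.6 SD, in any replicate, cut at about 0.56 in these data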;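 further: stock transfer was 300 nL into about 60 µL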
# FGF22 binding = shifts melting point of recombinant human FGF22 | Q9HCT0 | recombinant FGF22 thermal shift, SYPRO orange fluorescence; percent of sucrose octasulfate shift, DMSO zero | calls only at 9.99 µM | 340,000 tested, 1.5% active | AID 651658;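 active means melting point raised past a set limit in the mean and every replicate; inconclusive means no clear call; three in four hits are not shown here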
# Target sequence (Q9HCT0 whole entry, looked up): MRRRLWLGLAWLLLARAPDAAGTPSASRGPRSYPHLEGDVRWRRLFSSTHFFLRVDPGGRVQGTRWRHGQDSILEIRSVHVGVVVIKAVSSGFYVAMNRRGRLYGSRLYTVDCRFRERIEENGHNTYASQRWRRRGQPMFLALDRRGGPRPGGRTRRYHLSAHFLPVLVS
# Beta apoptosis = beta cell apoptosis inhibition | INS-1E cytokine-induced death, ATP luminescence, 48 h; percent of positive-control rescue, neutral wells zero | protection from apoptosis, % (concentration not given with the values) | 300,000 tested, 0.8% active | AID 435005;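 active means all replicates at 75% or more, or half of them and the mean; inconclusive means half reach 75% but not the mean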;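 further: 0% = cytokine-treated negative control wells and 100% = positive control rescue; higher means more ATP so stronger rescue from cytokine killing; wells of about 40 µL received 100 nL stock; the first replicate is given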
# Ecoli rRNA inh OD600 = second read-out of Ecoli rRNA inh, no call of its own (marks repeat the call); OD600 change, %; measured here: OD600 growth;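 optical density of the mix in the first replicate; 0 = DMSO median and -100 = no signal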
# Ecoli rRNA inh RFP = also measured in Ecoli rRNA inh; calls as there; RFP signal change, %; measured here: RFP humanized mutant strains;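 first replicate; 0 = DMSO median and -100 = no signal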
# Starred values were filed as active, the others as inactive; i = inactive; ? = inconclusive; nt = not tested or not shown; + = active, no number. The list is partial, so the mix of outcomes need not match the whole.
SMILES,Ecoli rRNA inh,Ecoli rRNA inh OD600,Ecoli rRNA inh RFP,AF4-AF9 inh,UCH37 inh,Bfl-1 A1 inh,T cruzi inh,E coli growth,FGF22 binding,Beta apoptosis
CCCCNC(=O)C1CCCN(S(=O)(=O)c2ccc(S(=O)(=O)NCC(C)C)cc2)C1 (centres undefined),nt,nt,nt,nt,6.1,-0.2,7,0.77,nt,2
CC(=O)c1c(C)[nH]c(C(=O)Nc2cccc(C)c2C)c1C,10,13,1.3,-21,-0.2,0.1,0,0.71,i,2
NC(=O)c1cccnc1Nc1ccccc1F,-3,-6,-1.1,-12,3.6,-0.2,-16,0.68,+,-1
O=C(Cn1ncc2c(=O)oc3ccccc3c21)NC1CC1,nt,nt,nt,nt,1.5,-0.3,-7,0.66,nt,-2
CCN(CC(=O)Nc1cccc(S(N)(=O)=O)c1)Cc1nc2ccccc2c(=O)[nH]1,-1,-1,-6.7,4.8,-1.0,-0.4,-21,0.66,nt,-2
CCOc1ccccc1NC(=O)Cc1ccccc1OC,nt,nt,nt,nt,0.9,-0.1,2,0.74,nt,-5
CCCc1nn(C)c2c(=O)[nH]c(-c3ccccc3OCC)nc12,3,1,7.1,-13,1.8,0.1,19,0.62,i,-2
Oc1c(Br)cc(Br)cc1CNc1ccc(F)cc1,-45,-78,-13,0.3,-0.2,-0.3,14,0.65,i,-5
CCOC(=O)Cc1csc(NC(=O)CSc2nc(C)cc(=O)[nH]2)n1,nt,nt,nt,nt,4.0,0.0,-9,0.69,nt,-3
COc1ccc(N2CCN(C(=O)c3oc4ccccc4c3NC(=O)CCc3cc(OC)no3)CC2)cc1,-10,-2,1.0,9.1,1.6,-0.2,8,0.64,i,5
COc1cc(NC(=S)Nc2cccc(C)n2)cc(OC)c1OC,-13,-19,-2.6,-1.5,2.4,-0.3,4,0.69,i,0
COc1ccc(CNc2nc(NC(C)=O)nn2-c2ccccc2)cc1,2,9,0.6,-14,1.4,0.2,-14,0.69,i,-1
O=C(COC(=O)Cc1c(F)cccc1Cl)NC1CCS(=O)(=O)C1 (centres undefined),0,13,-1.4,4.1,-0.1,-0.6,-17,0.61,i,-1
O=C(NCc1ccccc1)C(c1ccncc1)N(C(=O)c1csnn1)c1ccccc1F (centres undefined),3,2,0.2,-2.3,4.5,0.1,2,0.7,i,1
NC(=O)CC(NC(=O)Cc1cccc2ccccc12)c1ccc(N2CCCCCC2)c([N+](=O)[O-])c1 (centres undefined),-3,-6,-3.6,-1.3,5.4,0.0,2,0.69,i,-3
CC(C)OC(=O)c1ccc(COC(=O)c2cccc(-c3nnc(-c4ccccc4)o3)c2)cc1,5,16,-4.9,2.7,0.7,0.5,12,0.71,i,-6
O=C(N/N=C/c1ccc([N+](=O)[O-])s1)c1ccccc1Br,-56,-81,-26,1.4,nt,1.4,52,nt,i,nt
CSc1nc2[nH]c(=O)n(O)c(=O)c2n1Cc1ccccc1,-44,-75,-14,-17,1.2,nt,nt,0.57,i,nt
COc1ccc(N2CCN(C(=O)Cc3coc4cc(C)ccc34)CC2)cc1,-26,-42,7.3,6.4,0.9,0.9,-15,0.65,i,4
CCn1c(SCC(=O)Nc2ccc(F)cc2F)nc2c(c1=O)SCC2,4,-7,-3.1,1.2,6.4,-0.1,10,0.69,i,-17
O=C(c1cc(COc2ccc(F)cc2Cl)on1)N1CC2C[C@@H]3CC1C[C@H](C2)C3,9,9,-0.1,-3.3,2.2,-2.1,?,0.67,i,13
CC1=CC(C)(C)N(C(=O)C(C)N2C(=O)c3ccccc3C2=O)c2ccc(C)cc21 (centres undefined),nt,nt,nt,nt,0.3,0.3,-8,0.74,nt,-15
O=C(N/C(=C/c1cccs1)C(=O)N1CCOCC1)c1cccs1,-4,-6,-2.7,-3.3,6.3,1.6,-7,0.71,i,0
O=C(COc1ccc(F)cc1Cl)Nc1ccccc1C(=O)N1CCCCC1,-10,-3,3.4,-1.0,2.2,1.3,-3,0.64,nt,nt
O=[N+]([O-])c1ccc2c(c1Nc1ccccc1)=NC1(CCCCC1)N=2,nt,nt,nt,nt,3.4,-1.2,-5,0.69,nt,2
Cc1ccc(S(=O)(=O)N2CC3(C)CN(S(=O)(=O)c4ccc(C)cc4)CC(C)(C2)C3O)cc1 (centres undefined),8,6,3.2,nt,3.1,nt,27,0.69,nt,-3
O=C(/C=C/c1ccco1)NCCCN1CCOCC1,nt,nt,nt,-1.5,3.3,-0.1,6,0.7,nt,-4
Cc1ccc(C)c(N2CCN(CCCc3ccccc3)CC2)c1,-35,-66,-4.9,5.2,6.2,0.2,6,0.65,i,-12
CS(=O)(=O)N1CCN(c2ccc(NC(=S)NC(=O)c3ccccc3[N+](=O)[O-])cc2)CC1,3,12,0.7,-2.6,-0.4,0.2,-11,0.7,i,-1
O=C(Cc1cccc(NC(=O)C2CCCN(C(=O)C3CCCCC3)C2)c1)Nc1cccc(C(=O)N2CCOCC2)c1 (centres undefined),7,14,-2.8,-1.8,-0.7,nt,nt,0.69,nt,nt

# Given bar-delimited: 13 of the compounds above
canonical_smiles | Ecoli rRNA inh | Ecoli rRNA inh OD600 | Ecoli rRNA inh RFP | AF4-AF9 inh | UCH37 inh | Bfl-1 A1 inh | T cruzi inh | E coli growth | FGF22 binding | Beta apoptosis
CSc1nc2[nH]c(=O)n(O)c(=O)c2n1Cc1ccccc1 | -44 | -75 | -14 | -17 | 1.2 | nt | nt | 0.57 | i | nt
COc1ccc(N2CCN(C(=O)Cc3coc4cc(C)ccc34)CC2)cc1 | -26 | -42 | 7.3 | 6.4 | 0.9 | 0.9 | -15 | 0.65 | i | 4
CCn1c(SCC(=O)Nc2ccc(F)cc2F)nc2c(c1=O)SCC2 | 4 | -7 | -3.1 | 1.2 | 6.4 | -0.1 | 10 | 0.69 | i | -17
O=C(c1cc(COc2ccc(F)cc2Cl)on1)N1CC2C[C@@H]3CC1C[C@H](C2)C3 | 9 | 9 | -0.1 | -3.3 | 2.2 | -2.1 | ? | 0.67 | i | 13
CC1=CC(C)(C)N(C(=O)C(C)N2C(=O)c3ccccc3C2=O)c2ccc(C)cc21 (centres undefined) | nt | nt | nt | nt | 0.3 | 0.3 | -8 | 0.74 | nt | -15
O=C(N/C(=C/c1cccs1)C(=O)N1CCOCC1)c1cccs1 | -4 | -6 | -2.7 | -3.3 | 6.3 | 1.6 | -7 | 0.71 | i | 0
O=C(COc1ccc(F)cc1Cl)Nc1ccccc1C(=O)N1CCCCC1 | -10 | -3 | 3.4 | -1.0 | 2.2 | 1.3 | -3 | 0.64 | nt | nt
O=[N+]([O-])c1ccc2c(c1Nc1ccccc1)=NC1(CCCCC1)N=2 | nt | nt | nt | nt | 3.4 | -1.2 | -5 | 0.69 | nt | 2
Cc1ccc(S(=O)(=O)N2CC3(C)CN(S(=O)(=O)c4ccc(C)cc4)CC(C)(C2)C3O)cc1 (centres undefined) | 8 | 6 | 3.2 | nt | 3.1 | nt | 27 | 0.69 | nt | -3
O=C(/C=C/c1ccco1)NCCCN1CCOCC1 | nt | nt | nt | -1.5 | 3.3 | -0.1 | 6 | 0.7 | nt | -4
Cc1ccc(C)c(N2CCN(CCCc3ccccc3)CC2)c1 | -35 | -66 | -4.9 | 5.2 | 6.2 | 0.2 | 6 | 0.65 | i | -12
CS(=O)(=O)N1CCN(c2ccc(NC(=S)NC(=O)c3ccccc3[N+](=O)[O-])cc2)CC1 | 3 | 12 | 0.7 | -2.6 | -0.4 | 0.2 | -11 | 0.7 | i | -1
O=C(Cc1cccc(NC(=O)C2CCCN(C(=O)C3CCCCC3)C2)c1)Nc1cccc(C(=O)N2CCOCC2)c1 (centres undefined) | 7 | 14 | -2.8 | -1.8 | -0.7 | nt | nt | 0.69 | nt | nt

# (continued)
SMILES,Ecoli rRNA inh,Ecoli rRNA inh OD600,Ecoli rRNA inh RFP,AF4-AF9 inh,UCH37 inh,Bfl-1 A1 inh,T cruzi inh,E coli growth,FGF22 binding,Beta apoptosis
CSc1ccccc1OCc1cc(C(=O)NCCc2ccco2)no1,-5,1,3.0,-1.3,0.9,0.2,-6,0.7,i,4
CC1CCCC(C)N1C(=O)CSc1nnc(-c2cccs2)o1 (centres undefined),0,-2,-3.2,3.7,2.6,0.7,-1,0.68,i,3
COc1ccc(/C=C/C(=O)OCC(=O)Nc2ccc(N3CCOCC3)cc2)cc1OC,2,4,2.1,-11,-59,0.2,8,0.65,i,-5
CCCN1CCc2c(sc(NC(=O)c3ccc(S(=O)(=O)N4CCN(C(=O)OCC)CC4)cc3)c2C(N)=O)C1,nt,nt,nt,-12,0.7,1.0,14,0.72,i,nt
COc1ccc(C(=O)Nc2cc(Cl)ccc2N2CCOCC2)cc1S(=O)(=O)N1CCOCC1,14,14,1.6,-1.1,-4.4,nt,nt,0.66,i,nt
CCCCCC(=O)Nc1cccc(C2=NOC3(C2)C[C@@H](C(N)=O)N(C(=O)C2(C)CC2)C3)c1 (some centres undefined),5,5,-1.7,-4.4,0.5,-0.4,-2,nt,i,-1
CSc1ccc(NC(=O)Nc2ccccc2C(N)=O)cc1,2,4,-2.5,0.2,-8.8,-11,-5,0.67,i,0
CC(C)(C)C1CCc2c(sc(NC(=O)c3cccs3)c2C(=O)N2CCCCC2)C1 (centres undefined),nt,nt,nt,nt,-0.6,-1.0,26,0.75,nt,20
N=C1S/C(=C\c2cccc3ccccc23)C(=O)N1c1ccc(F)cc1,nt,nt,nt,nt,7.2,-0.3,-42,0.67,nt,10
N#C/C(=C\c1ccc(OC(=O)c2cccs2)cc1)c1nc2ccccc2[nH]1,nt,nt,nt,nt,-14,-7.9,2,nt,nt,-1
CCCCCCc1nc2ccccc2c(=O)n1N,nt,nt,nt,nt,2.0,-0.7,9,0.72,nt,-5
CC(C)Cn1c(SCC(=O)Nc2ccc(Cl)cc2F)nc(O)cc1=O,0,7,5.6,-1.9,1.7,-1.1,nt,0.66,i,1
Cc1ccc(-c2nnc(-c3ccccc3)c(-c3ccccc3)n2)cc1,12,6,-2.1,5.1,2.3,-0.2,11,0.75,i,5
C=C(C)c1cccc(C(C)(C)NC(=O)Nc2ccc3[nH]c(=O)[nH]c3c2)c1,-6,-19,-1.8,nt,-5.2,-0.6,-6,0.75,nt,-5
COc1cc(SC)ccc1C(=O)N1CCN(Cc2ccc3c(c2)OCO3)CC1,-9,-13,-0.9,2.2,5.6,-0.6,4,0.65,i,2
COC(=O)[C@@]12CCCN1[C@H](c1ccc(-c3cccc(Cl)c3)cc1)[C@H]1C(=O)N(C)C(=O)[C@H]12,-8,-6,-2.0,6.0,3.4,0.4,-14,nt,i,0
COC(=O)c1cccc(NC(=S)NCc2ccc(Cl)cc2)c1,nt,nt,nt,nt,-0.1,0.1,10,0.7,nt,0
COc1ccccc1C=NC(CO)C(O)c1ccc([N+](=O)[O-])cc1 (centres undefined),nt,nt,nt,nt,-6.3,-1.1,-17,0.78,nt,-6
COc1ccc(N(CCC(=O)O)S(=O)(=O)c2ccc(C)c(C)c2)cc1,-2,-6,1.4,6.6,0.8,0.4,14,0.66,i,0
